# 2A StopGo: High Throughput Screening for Foot and Mouth Disease Virus Antivirals | human cells with a luciferase reporter of 2A StopGo recoding; control for the full effect not named in the record | Potency, µM (top dose mostly 57.9 µM), without a hit: at the top dose signal change, negative = less light | AID 1159524, 2015 | 410,000 tested, 1.2% active; active = well fitted falling curve with a large enough effect; inconclusive = small, poorly fitted or top-dose-only effect; inactive = no such curve, though single readings can be large or run the other way; tested in HEK293T cells; further: on the % scale 0 is the no-effect control and ±100 the full control effect; nearly all actives have a fitted effect of over 45% in size; luciferase light after 4 h
# Cruzain inh Det: qHTS Assay for Promiscuous and Specific Inhibitors of Cruzain (with detergent); Cruzipain (Trypanosoma cruzi), P25779; purified cruzain, Z-FR-AMC fluorescence, 0.01% Triton; Potency, µM, inactives show max response, negative = inhibition, usual class: inhibitors; 200,000 tested, 0.43% active; active means well fitted curve in the direction sought with a large enough effect; inconclusive means small, poorly fitted or top-dose-only effect, or another doubt; inactive means no such curve, though single readings can be large; an effect the other way counts as inactive or inconclusive;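 further: plate controls were neutral wells for no effect and buffer without enzyme for full effect; nearly all actives have a fitted effect of over 40% in size; top concentration of the series not given in the record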
# Target sequence (P25779 123-467 limits assumed): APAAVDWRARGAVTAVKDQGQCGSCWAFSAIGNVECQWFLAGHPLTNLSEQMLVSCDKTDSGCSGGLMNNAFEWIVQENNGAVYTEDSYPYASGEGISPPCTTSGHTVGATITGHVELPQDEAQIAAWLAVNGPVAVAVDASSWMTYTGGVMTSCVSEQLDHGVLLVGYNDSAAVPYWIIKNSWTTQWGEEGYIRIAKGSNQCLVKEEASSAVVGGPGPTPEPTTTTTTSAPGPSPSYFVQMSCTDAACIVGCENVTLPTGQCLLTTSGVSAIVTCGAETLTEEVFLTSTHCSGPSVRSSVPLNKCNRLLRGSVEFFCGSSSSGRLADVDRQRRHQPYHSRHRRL
#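 Z-FR-AMC hydrolysis (2 uM substrate) by cruzain (1.5 nM) monitored kinetically at ex 360/em 450 nm after 15 min room-temperature compound exposure; 0.01% Triton X-100, pH 5.5, 5 mM DTT.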
# RE007 growth inh: qHTS Assay for Inhibitors of the HIV-1 protein Vpr; S. pombe RE007 Vpr strain, BacTiter-Glo ATP luminescence, 24 h; control for the full effect not named in the record; Potency, µM (series often up to 92.2 µM), without a hit: at the top dose activity change, negative = less growth; 360,000 tested, 0.21% active; AID 651644, 2012; active = well fitted falling curve with a large enough effect; inconclusive = small, poorly fitted or top-dose-only effect; inactive = no such curve, though single readings can be large or run the other way;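 further: on the % scale 0 is the no-effect control and ±100 the full control effect; nearly all actives have a fitted effect of over 50% in size; the assay follows cell death caused by Vpr and the record does not say whether a fall means rescue or toxicity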
#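 Fission yeast strain RE007, carrying one chromosomally integrated HIV-1 vpr copy, was seeded at OD 0.01 in PMG+AL medium with 23 nL pinned compound. After 24 h at 30 °C and 99% humidity, viability was read by BacTiter-Glo luminescence.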
# Lassa entry inh: qHTS for Inhibitors of binding or entry into cells for Lassa Virus; Lassa virus pseudotype entry inhibition, cell reporter; control for the full effect not named in the record; Potency, µM (highest dose often 37.9 µM), without a hit: at the top dose activity change, negative = inhibition, usual class: inhibitors; 300,000 tested, 1.2% active; AID 540256, 2011; active means well fitted inhibition curve with a large enough effect; inconclusive means small, poorly fitted or top-dose-only effect, or effect the other way; inactive means flat fitted curve, though single readings scatter; tested in HEK293 cells; further: on the % scale 0 is the no-effect control and ±100 the full control effect; nearly all actives have a fitted effect of over 50% in size; luciferase read-out
# MARV entry inh: qHTS for inhibitors of binding or entry into cells for Marburg Virus | Potency, µM (doses to about 37.8 µM), inactives show at the highest dose activity change, negative = inhibition, hits mostly inhibitors | Marburg virus pseudotyped entry inhibition, cell reporter; control for the full effect not named in the record; about a third of the inactives were read at about 46 µM | 300,000 tested, 1.8% active | AID 540276, 2011; active = well fitted inhibition curve with a large enough effect; inconclusive = small, poorly fitted or top-dose-only effect, or effect the other way; inactive = flat fitted curve, though single readings scatter; tested in HEK293 cells; about a fifth of its hits are not listed in these tables; further: on the % scale 0 is the no-effect control and ±100 the full control effect; luciferase read-out
# SARS PLpro yeast: qHTS of Yeast-based Assay for SARS-CoV PLP | S. cerevisiae expressing SARS-CoV PLpro, growth rescue; control for the full effect not named in the record | Potency, µM (doses to about 32.9 µM), for the others: top-dose activity, positive = growth rescue | 330,000 tested, 0.19% active | AID 485353, 2010; further: 0% is about no effect; nearly all actives have a fitted effect of over 55% in size; growth read by luminescence after 48 h
# NS1 function inh: qHTS Assay for Inhibitors of Influenza NS1 Protein Function | S. cerevisiae slowed by influenza A NS1, growth recovery by OD600 | Potency, µM (titrated, usually from 46.1 µM), without a hit: top-dose activity, positive = more growth | 270,000 tested, 0.4% active | AID 2326, 2010; further: actives are rising curves; nearly all actives have a fitted effect of over 50% in size
#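 A cell-based growth assay was used: compounds that relieve NS1-induced slow growth of budding yeast raise OD600. Assay medium was yeast nitrogen base with ammonium sulphate and -URA supplement, pH 6.0, with 2% galactose.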
# Cruzain inh noDet: qHTS Assay for Promiscuous and Specific Inhibitors of Cruzain (without detergent); Potency, µM, inactives show max response, negative = inhibition, hits mostly inhibitors; purified cruzain, Z-FR-AMC fluorescence, no detergent; 200,000 tested, 2.3% active; active means well fitted curve in the direction sought with a large enough effect; inconclusive means small, poorly fitted or top-dose-only effect, or another doubt; inactive means no such curve, though single readings can be large; an effect the other way counts as inactive or inconclusive;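 further: plate controls were enzyme without inhibitor for no effect and buffer without enzyme for full effect; nearly all actives have a fitted effect of over 40% in size; top concentration of the series not given in the record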
#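 Purified cruzain at 1.5 nM, pre-incubated 15 min with compound at room temperature in 100 mM sodium acetate pH 5.5, 5 mM DTT, 0.00005% Triton X-100. Reaction started with 2 uM Z-FR-AMC; AMC fluorescence increase over 60 s gives rate.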
# * hit, by the source's call; ? = inconclusive; nt = no result given; & = joins results of further samples; [ ] = another dose, or the depositor's remark. Unless noted, the call rests on the fitted dose curve; in most records, active means well fitted rising curve with a large enough effect; inconclusive means small, poorly fitted or top-dose-only effect; inactive means no such curve, though single readings can be large or run the other way. Potency means the concentration at half of the fitted maximal effect.
SMILES,2A StopGo,Cruzain inh Det,RE007 growth inh,Lassa entry inh,MARV entry inh,SARS PLpro yeast,NS1 function inh,Cruzain inh noDet
COc1ccc(-c2csc(N3CCN(c4cc5c(cc4Cl)nc(-c4ccncc4)n5CCOCCO)CC3)n2)cc1,0%,nt,-12%,nt,nt,-9%,21%,nt
Cc1ccc(C(C)C)c(OCC(O)CN(C)Cc2ccccc2)c1 (centres undefined),?,nt,2%,?,?,-1%,3%,nt
CCC(=O)N1c2ccc(S(=O)(=O)CCC(=O)Nc3ccc(OC)cc3OC)cc2CC1C (centres undefined),-11%&-17%,-1.8%,-10%,6%[46.1 µM],10%&10%[46.1 µM],-12%,-3%,1%
CO/N=C(\C(=O)O)c1csc(NN=C(C)C)n1,-2%,nt,-22%,-21%[46.1 µM],?,0%,-1%,nt
Cc1ccc(Cn2ccnc2SCC(=O)Nc2ccc3c(c2)OCO3)cc1,4%,-4.5%,nt,15%[46.1 µM],nt,nt,nt,1%
CC(=O)Nc1cc(C(=O)N2CCN(C)CC2)ccc1S(=O)(=O)c1ccc(C)cc1,-7%,1.1%,1%,1%,16%,-3%,11%,0%
O=C(Nc1ccc2c(c1)OCO2)C1CCCCN1S(=O)(=O)c1ccc(F)cc1 (centres undefined),29%,-4.4%,-17%,10%,-1%,0%,15%,-20%
CC(C)c1ccc(NC(=O)c2ccc(F)c(S(=O)(=O)N3CCCCCC3)c2)cc1,?,-0.2%,nt,?,nt,nt,nt,8%
O=C(Cc1cccs1)Nc1nnc(Cc2ccc(F)cc2)s1,nt,5.1%,nt,nt,nt,3%,-4%,-18%
O=C(COC(=O)CCS(=O)(=O)c1ccc(Cl)cc1)NCCc1ccc(Cl)cc1Cl,-13%,-10%,4%,0%,1%,1%,-23%,?
Nc1nnc(CC(=O)N/N=C/c2cccc(OCCOc3ccccc3)c2)s1,-19%,7.9%,-15%,-27%,?,-2%,11%,-3%
CC(=O)N1CCN(C(=S)NCCc2ccccc2)CC1,29%,4.5%,-2%,-3%,8%,17%,7%,-5%
O=C(CCNc1n[nH]c(=O)[nH]c1=O)N/N=C/c1ccccc1Br,-6%,nt,16%,18%,26%[46.1 µM],3%,nt,nt
Cc1cc(C)nc(N(C#N)CC(=O)c2ccccc2)n1,-17%,7.4%,8%,?,?,-1%,2%,1%
COC(=O)Nc1nc(Sc2ncc(C(F)(F)F)cc2Cl)n[nH]1,-8%,0.3%,10%,6%[46.1 µM],15%[46.1 µM],-4%,-22%,3%
O=C(CSc1c(Cl)cccc1Cl)NC1CCCc2ccccc21 (centres undefined),17%,-0.5%,2%,-25%,-9%,11%,4%,-2%
O=C(c1cc2ccccc2oc1=O)N(Cc1ccccc1)Cc1ccc2c(c1)OCO2,25%,-6.4%,10%,?,-31%,-18%,27%,-22%
CO/N=C(\CCC(=O)O)c1cccs1,-6%,nt,8%,nt,nt,0%,-1%,nt
COC(=O)CSc1nc2nc(-c3cccs3)cc(C(F)(F)F)c2c(=O)[nH]1,-11%,nt,-11%,nt,nt,-1%,5%,nt
Cc1c(C(=O)Nc2ccccc2F)cnn1-c1ccccc1,16%,nt,-26%,nt,nt,-12%,-44%,nt
Cn1cnc2ncnc(Oc3ccc(Br)cc3)c21,-24%,nt,2%,-11%,-10%,nt,nt,nt
Cc1cc(C(=O)NCCC(C)C)c2ccccc2n1,-19%,nt,7%,-17%,13%[46.1 µM],2%,1%,nt
COc1cccc(C(=O)c2c(N)c(-c3nc(-c4ccccc4)cs3)c3ccccn23)c1,34%[activator],-1.5%,nt,?,-6%[46.1 µM],nt,nt,10µM*
O=C(C1CC(=O)N(c2ccccc2)C1)N1CCN(c2ccc(F)cc2)CC1 (centres undefined),-17%,nt,7%,5%,-5%,5%,6%,nt
O=C(NC(=S)Nc1nc2c(ccc3ccccc32)s1)c1cccs1,-4%,-0.8%,-16%,11%,-9%,5%,2%,20µM*
Fc1ccc(C2CCCN2Cc2nc(CC3CC3)no2)cc1 (centres undefined),-7%,nt,14%,nt,nt,1%,-1%,nt
CN(C)C(=O)CCc1ccc2c3c([nH]c2c1)[C@]1(C)[C@@H](C(=O)N2CCCCC2)C[C@H](CC(=O)NC(C)(C)C)C(=O)N1CC3,-5%,nt,38%,nt,-6%,19%,nt,nt
Cc1nn(CCC(=O)NCc2ccc(OC(C)C)cc2)c(=O)c2nn(-c3ccccc3)c(C)c12,-17%,nt,17%,nt,nt,2%,-7%,nt
CCCSc1nnc(Nc2ccccc2C)s1,79%[activator],-2.7%,-13%,4%,-1%[46.1 µM],-4%,-14%,-6%
COc1cc(NC(=S)NCc2cccnc2)cc(OC)c1OC,22%,nt,0%,10%,-1%,0%,-2%,nt
Cc1occc1-c1nnc(SCCCC(=O)c2ccc(F)cc2)n1C,?,-1.5%,-20%,-11%,?,0%,-7%,11%
COc1ccc(C(=O)OC(C)CN2CCOCC2)cc1OC (centres undefined),12%,6.5%,0%,10%,12%,-8%,-9%,-7%
CCOc1c(C)cnc2c1c(=O)n(Cc1ccccc1Cl)c(=O)n2C,-17%,nt,1%,nt,nt,-11%,-6%,nt
CN1CCN(CCC(=O)Nc2ccccc2)CC1,-10%,nt,-14%,8%,?,-1%,20%,nt
N#Cc1ccsc1NC(=O)COC(=O)c1ccc(NC(N)=O)cc1,-17%,nt,0%,?,?,0%,3%,nt
OC(CN1CCCCCC1)CN(c1ccccc1)c1ccccc1 (centres undefined),?,nt,-2%,nt,nt,14%,3%,nt
Cc1cc(C)nc(SCc2nnc(SCC(=O)Nc3ncc(C)s3)n2Cc2ccco2)n1,-6%,-5.4%,24%,6%,0%&0%,3%,-8%,?
O=C(NCC1CCCO1)c1ccccc1 (centres undefined),26%,2.9%,-7%,0%,?,nt,10%,2%
COc1ccc(C(=O)c2cn(CC(=O)Nc3cc(C)ccc3C)c3nc(C)ccc3c2=O)cc1,-4%,-0.1%,nt,26%[46.1 µM],nt,nt,nt,4%
CC(Oc1ccc(-c2ccccc2)c(F)c1)c1ccn(S(=O)(=O)c2cccc3ccccc23)n1 (centres undefined),-10%,5.6%,-8%,?,?,1%,23%,13µM*
COc1cccc2oc3ccc(C#CC4(N)CCCCC4)cc3c(=O)c12,-8%,nt,-16%,nt,nt,3%,4%,nt
O=[N+]([O-])c1ccc(Cl)c(-c2ccc(/C=N/c3c(-c4ccco4)nc4ccccn34)o2)c1,-29%,3.2%,-7%,6%,?,7%,-47%,11%
COc1ccc(CN2CCCC(CO)(Cc3ccc(F)cc3)C2)c(OC)c1OC (centres undefined),3%,nt,12%,nt,nt,-4%,0%,nt
COCCN(C(=O)c1c(C)noc1C)c1c(N)n(CC(C)C)c(=O)[nH]c1=O,-20%,nt,25%,3%,3%,3%,nt,nt
CC(=O)c1ccc(Nc2nc(C)cc(C)n2)cc1,0%,nt,4%,2%,10%,-2%,-11%,nt
Cc1cccc(C)c1NC(=O)CNCC(=O)Nc1c(C)cccc1C,-9%,nt,6%,-4%,-16%[46.1 µM],-1%,3%,nt
O=C(CCC(=O)N1CC2CCCN2c2ccccc21)NCc1ccccc1 (centres undefined),-6%,-4.3%,nt,7%[46.1 µM],nt,nt,nt,-11%
CCOc1cccc2cc(C(=O)OCC(=O)Nc3c(C)cccc3CC)c(=O)oc12,36%[activator],nt,4%,13%,11%,3%,nt,nt
COc1ccc(S(=O)(=O)N2CCCC(C(=O)N3CCOCC3)C2)cc1Cl (centres undefined),-15%,nt,9%,-13%[46.1 µM],24%[46.1 µM],4%,-4%,nt
COCC(C)NS(=O)(=O)c1ccc(C(=O)NC(Cc2ccccc2)c2ccccc2)cc1 (centres undefined),-11%,nt,10%,?,-24%[46.1 µM],3%,12%,nt
CCOc1ccc(NC(=O)CCSc2nc(-c3ccc4c(c3)OCO4)cc(C(F)(F)F)n2)cc1,-23%,-0.9%,nt,-22%[46.1 µM],6%[46.1 µM],nt,nt,-9%
Nc1cccc(C(=O)N/N=C/c2ccsc2)c1,53%[activator],nt,-7%,8%,?,-2%,nt,nt
O=C(OCC(=O)N1CCc2ccccc21)c1cncc(Br)c1,23%,nt,0%,4%,7%[46.1 µM],0%,nt,nt
COC(=O)c1nn(-c2ccc(-c3ccccc3)cc2)cc1O,-40%,-13%,-12%,?,?,-11%,-23%,2%
O=S(=O)(NCCc1csc2nc(-c3ccccc3)nn12)c1ccc(Oc2ccccc2)cc1,-9%,-5.0%,nt,?,nt,nt,nt,-9%
O=C(COC(=O)c1ccc(Cl)nc1)Nc1ccc(N2CCCCC2)cc1,42%[activator],nt,-10%,25%,?,-28%,nt,nt
Cc1ccc(C(=O)N2CCN(c3ncc(C(F)(F)F)cc3Cl)CC2)s1,?,nt,4%,-6%,3%,-1%,-3%,nt
CCCc1nc2sc3c(c2c(=O)n1NC(=O)c1ccco1)CC(C)(C)OC3,-18%,-3.3%,-2%,2%,12%,-9%,-1%,0%
CCC(=O)Nc1cc2[nH]c(=O)cc(C)c2cc1C,-7%,nt,-3%,nt,nt,1%,1%,nt
COc1ccc(C(=O)Nc2ccccc2-c2nc(-c3ccc(OC)cc3)no2)cc1,0%,-1.9%,nt,1%[46.1 µM],4%[46.1 µM],nt,nt,-5%
COc1ccc(-n2nc(C(=O)NCC(=O)N3CCCC(C)C3)c3ccccc3c2=O)cc1Cl (centres undefined),-2%,nt,-3%,?,-27%[46.1 µM],0%,23%,nt
C=C(C)CSc1nc2sc3c(c2c(=O)n1CCCC)CCCC3,-29%,-0.1%,nt,-16%[46.1 µM],nt,nt,nt,-10%
